# High-throughput results (PubChem BioAssay)
# SARS PLpro yeast = inhibitors of SARS-CoV papain-like protease in yeast. S. cerevisiae expressing SARS-CoV PLpro, growth rescue; control for the full effect not named in the record. 330,000 compounds, 0.19% hits. Potency, µM (doses to about 32.9 µM), for the others: at the highest dose activity, positive = growth rescue; further: 0% is about no effect; nearly all actives have a fitted effect of over 55% in size; growth read by luminescence after 48 h
# MARV entry inh = inhibitors of Marburg virus binding or cell entry; Marburg virus pseudotyped entry inhibition, cell reporter; control for the full effect not named in the record; about a third of the inactives were read at about 46 µM; AID 540276; Potency, µM (titrated, usually from 37.8 µM), inactives show at the top dose activity change, negative = inhibition, most hits filed as inhibitors; 300,000 compounds, 1.8% hits; active = well fitted inhibition curve with a large enough effect; inconclusive = small, poorly fitted or top-dose-only effect, or effect the other way; inactive = flat fitted curve, though single readings scatter; tested in HEK293 cells; about a fifth of its hits are not listed in these tables; further: on the % scale 0 is the no-effect control and ±100 the full control effect; luciferase read-out
# RE007 growth inh = less growth of the S. pombe RE007 Vpr strain. S. pombe RE007 Vpr strain, BacTiter-Glo ATP luminescence, 24 h; control for the full effect not named in the record. Potency, µM (doses to about 92.2 µM), inactives show at the top dose activity change, negative = less growth. 360,000 compounds, 0.21% hits. AID 651644; active = well fitted falling curve with a large enough effect; inconclusive = small, poorly fitted or top-dose-only effect; inactive = no such curve, though single readings can be large or run the other way;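 further: on the % scale 0 is the no-effect control and ±100 the full control effect; nearly all actives have a fitted effect of over 50% in size; the assay follows cell death caused by Vpr and the record does not say whether a fall means rescue or toxicity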
#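 Fission yeast RE007 carrying one integrated HIV-1 vpr copy, seeded at OD 0.01 in PMG+AL medium with 23 nL pinned compound. Grown 24 h at 30 degrees; viability read by BacTiter-Glo luminescence after 5 min.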
# Lassa entry inh = inhibitors of Lassa virus binding or cell entry; Lassa virus pseudotype entry inhibition, cell reporter; control for the full effect not named in the record; AID 540256; Potency, µM (highest dose often 37.9 µM), without a hit: top-dose activity change, negative = inhibition, usual class: inhibitors; 300,000 compounds, 1.2% hits; active means well fitted inhibition curve with a large enough effect; inconclusive means small, poorly fitted or top-dose-only effect, or effect the other way; inactive means flat fitted curve, though single readings scatter; tested in HEK293 cells; further: on the % scale 0 is the no-effect control and ±100 the full control effect; nearly all actives have a fitted effect of over 50% in size; luciferase read-out
# 2A StopGo = FMDV 2A StopGo reporter, luciferase signal. human cells with a luciferase reporter of 2A StopGo recoding; control for the full effect not named in the record. Potency, µM (highest dose often 57.9 µM), for inactives: at the top dose signal change, negative = less light. 410,000 compounds, 1.2% hits; active = well fitted falling curve with a large enough effect; inconclusive = small, poorly fitted or top-dose-only effect; inactive = no such curve, though single readings can be large or run the other way; tested in HEK293T cells; further: on the % scale 0 is the no-effect control and ±100 the full control effect; nearly all actives have a fitted effect of over 45% in size; luciferase light after 4 h
# NS1 inh = blocks influenza NS1 protein function | 270,000 compounds, 0.4% hits | S. cerevisiae slowed by influenza A NS1, growth recovery by OD600 | Potency, µM (top dose mostly 46.1 µM), for inactives: at the highest dose activity, positive = more growth | AID 2326; further: actives are rising curves; nearly all actives have a fitted effect of over 50% in size
#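 S. cerevisiae expressing influenza A NS1, grown in glucose, washed, then diluted 1:100 into pH 6.0 -URA galactose medium with 23 nl compound. Growth recovery read as OD600; NS1-free strain serves as control.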
# Cruzain noTriton = cruzain (T. cruzi) inhibition without detergent; P25779; purified cruzain, Z-FR-AMC fluorescence, no detergent; Potency, µM, without a hit: max response, negative = inhibition, usual class: inhibitors; 200,000 compounds, 2.3% hits; active means well fitted curve in the direction sought with a large enough effect; inconclusive means small, poorly fitted or top-dose-only effect, or another doubt; inactive means no such curve, though single readings can be large; an effect the other way counts as inactive or inconclusive;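 further: plate controls were enzyme without inhibitor for no effect and buffer without enzyme for full effect; nearly all actives have a fitted effect of over 40% in size; top concentration of the series not given in the record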
# Target sequence (P25779 123-467 limits assumed): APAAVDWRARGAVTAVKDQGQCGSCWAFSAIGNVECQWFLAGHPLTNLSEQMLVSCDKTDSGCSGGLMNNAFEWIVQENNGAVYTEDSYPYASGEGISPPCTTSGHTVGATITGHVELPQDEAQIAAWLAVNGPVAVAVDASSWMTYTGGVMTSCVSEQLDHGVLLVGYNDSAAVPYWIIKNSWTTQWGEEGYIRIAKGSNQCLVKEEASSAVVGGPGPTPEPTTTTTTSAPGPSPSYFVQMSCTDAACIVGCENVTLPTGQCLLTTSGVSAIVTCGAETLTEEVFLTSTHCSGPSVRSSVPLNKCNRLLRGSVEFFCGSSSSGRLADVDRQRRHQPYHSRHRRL
#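 Detergent-free condition (0.00005% Triton X-100) in acetate buffer pH 5.5 with DTT. 1.5 nM enzyme and compound were pre-mixed 15 min, then 2 uM Z-FR-AMC substrate added; reaction progress from fluorescence change between first and third reads (60 s).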
# Cruzain inh Det = inhibitors of Trypanosoma cruzi cruzain with detergent; P25779; AID 1478; Potency, µM, inactives show max response, negative = inhibition, hits mostly inhibitors; purified cruzain, Z-FR-AMC fluorescence, 0.01% Triton; 200,000 compounds, 0.43% hits; active means well fitted curve in the direction sought with a large enough effect; inconclusive means small, poorly fitted or top-dose-only effect, or another doubt; inactive means no such curve, though single readings can be large; an effect the other way counts as inactive or inconclusive;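 further: plate controls were neutral wells for no effect and buffer without enzyme for full effect; nearly all actives have a fitted effect of over 40% in size; top concentration of the series not given in the record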
#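 In this qHTS format, compounds are incubated with 1.5 nM cruzain for 15 min at room temperature before 2 uM Z-FR-AMC is added. Release of AMC is followed at 360/450 nm, and progress is taken as the 60 s fluorescence difference.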
# The depositor's hits bear a star; ? = inconclusive; . = not tested or not shown; & = joins results of further samples; [ ] = remark or other dose. Unless noted, the call rests on the fitted dose curve; in most records, active means well fitted rising curve with a large enough effect; inconclusive means small, poorly fitted or top-dose-only effect; inactive means no such curve, though single readings can be large or run the other way. Potency means the concentration at half of the fitted maximal effect.
structure,NS1 inh,2A StopGo,Cruzain noTriton,Lassa entry inh,RE007 growth inh,Cruzain inh Det,SARS PLpro yeast,MARV entry inh
COc1ccc(N2C(=O)CS/C2=N\C(=S)Nc2ccccc2)cc1,3%,-9%,.,?,-11%,.,1%,-20%
Cc1nn(C)c(C)c1S(=O)(=O)N1CCC(C(=O)NCCC2=CCCCC2)CC1,-5%,-11%,4%,.,-7%,2.7%,-3%,0%
CCCc1nc2sc3c(c2c(=O)n1NC(=O)CCC(=O)O)CCCC3,10%,3%,-3%,2%,-11%,4.5%,5%,13%
CC(C)(C)NS(=O)(=O)c1ccc(CCC(=O)N2CCOCC2)cc1,-1%,-4%,-8%,-2%,-9%,4.6%,?,-11%
CCOC(=O)CSC1=C(C#N)C(C)C2=C(CCCC2=O)N1 (stereo unspecified),20%,-3%,-7%,22%,-7%,-5.5%,5%,11%
COc1ccc2c(c1OC)C(=O)N(c1cccc(/C=C/C(=O)O)c1)C2,1%,9%,.,.,-6%,.,1%,.
CCc1nnc(NC(=O)c2ccc3c(=O)n4c(nc3c2)CCCCC4)s1,-2%,17%,.,1%,1%,.,2%,-3%
C/C(=N\NC(=O)c1cc(C(C)C)[nH]n1)c1ccco1,10%,16%,-4%,.,-1%,-7.0%,-12%,.
O=C(COC(=O)CC1c2ccccc2CCN1S(=O)(=O)c1ccc(F)cc1)Nc1ccccc1 (stereo unspecified),-6%,-25%,3%,-8%,7%,-6.0%,-13%,?
O=c1c2ccccc2n(Cc2ccc(F)cc2)c(=O)n1C1CCCC1,-32%,?,-4%,?,-14%,3.0%,-24%,?
Cc1ccccc1NC(=O)c1ccno1,-3%,13%,.,?,-6%,.,-3%,?
O=C(CCc1ccccc1)Nc1ccc(N2CCOCC2)cc1,-7%,.,4%,18%,0%,9.0%,9%,2%
O=C(c1cc2ccc3cccnc3c2[nH]1)N1CCN(c2cccc(C(F)(F)F)c2)CC1,.,-7%,-13%,?,.,-1.5%,.,.
CC(C)CCN1CCN(Cc2ccc(N3CCNC3=O)cc2)CC1CCO (stereo unspecified),4%,-10%,.,.,-1%,.,1%,.
O=c1cc(-c2ccc(Cl)cc2)oc(=O)[nH]1,-3%,-3%,.,.,-21%,.,-2%,.
CNc1nc(N/N=C/c2cc3c(cc2[N+](=O)[O-])OCO3)nc(Nc2ccccc2)n1,.,?,.,?,-17%,.,-1%,16µM*
OCCN=C1CCCc2c1[nH]c1ccc(Cl)cc21,-4%,4%,.,0%,-10%,.,-1%,3%[46.1 µM]
COC(=O)c1ccccc1-c1ccc(C(c2c(C)[nH][nH]c2=O)c2c(C)[nH][nH]c2=O)o1,2%,20µM*,.,.,16%,.,-1%,-24%[46.1 µM]
Cc1ccc(NC(=O)N2CCCCC2)cc1[N+](=O)[O-],-4%,35%[activator],.,.,-11%,.,-1%,.
CCOc1ccc(Nc2ncnc3c2nnn3Cc2ccccc2)cc1,4%,5%,.,.,15%,.,5%,.

# Continued.
structure,NS1 inh,2A StopGo,Cruzain noTriton,Lassa entry inh,RE007 growth inh,Cruzain inh Det,SARS PLpro yeast,MARV entry inh
CC(C)N(CCNC(=O)c1ccc(NC2=NC3CS(=O)(=O)CC3S2)cc1)Cc1ccco1 (stereo unspecified),-16%,-16%,.,.,4%,.,-4%,.
O=C1CCCCC1S(=O)(=O)c1ccccc1 (stereo unspecified),0%,-20%,-3%,?,4%,0.4%,2%,-5%
Cc1cc(O)c(-c2n[nH]c3c2C(c2cccc(O)c2)N(Cc2cccnc2)C3=O)cc1Cl (stereo unspecified),-11%,?,10%,-4%,-13%,-6.7%,2%,-19%
Cn1c(C(=O)NCCc2ccccc2)cc2sc(Cl)cc21,.,-12%,-16%,.,.,-15%,.,?
COc1ccc(NC(=O)c2c(NCc3cccs3)sc3c2CCCC3)c(OC)c1,.,70%[activator],-20%,?,.,-9.3%,.,.
CN(c1ccccc1)S(=O)(=O)c1ccc(NC(=O)c2ccc(F)cc2)cc1,.,?,.,?,4%,.,.,18µM*
COc1ccc(NC(=O)Nc2ccc3c(c2)CCC3)c(OC)c1,6%,12%,.,.,-4%,.,5%,.
CCn1c(SCC(=O)OCC(=O)N2c3ccccc3NC(=O)C2(C)C)nnc1-c1ccco1,-8%,8%,5%,2%,0%,1.1%,5%,-3%&-3%[46.1 µM]
COc1ccc(-c2oc3ccccc3c2C(=O)OCc2ccccc2OC)cc1,-1%,-22%,.,.,3%,.,-3%,.
CCCCCCCCSc1nnc2[nH]c(=O)cc(N)n12,.,0%,.,-1%,22%,.,-2%,11%[46.1 µM]
CCSc1ccc2c(c1)N(CCCN1CCN(C)CC1)c1ccccc1S2,.,-7%,-12%,.,-2%[18.4 µM],-8.3%,.,.
COC(=O)C(C)n1cnc2c(nnn2-c2ccccc2)c1=O (stereo unspecified),-5%,-1%,.,.,-4%,.,-3%,.
Clc1cccc(Cl)c1Cl,.,-22%,2%,.,-7%,2.5%,-2%,.
CN(C)c1ccc(NC(=O)C2CCCN(S(=O)(=O)c3ccccc3)C2)cc1 (stereo unspecified),.,?,.,-15%,-15%,.,1%,-23%[46.1 µM]
Cn1ncc2c(Nc3ccccc3Cl)nc(Cl)nc21,3%,-8%,.,-5%,5%,.,1%,3%[46.1 µM]
Cc1ccc(C2C(C(=O)c3sc(C)nc3C)=C(O)C(=O)N2CCCN(C)C)o1 (stereo unspecified),-8%,.,1%,.,.,1.2%,-1%,1%
Cc1[nH]nc(SCC(=O)N2CCOCC2)c1[N+](=O)[O-],.,-2%,.,26%[46.1 µM],7%,.,1%,21%[46.1 µM]
CSc1ccc(C(=O)C2CCCN(C(=O)c3ccsc3)C2)cc1 (stereo unspecified),-12%,-16%,.,.,-4%,.,0%,.
CCC(=O)N1CCN(c2ccc(NC(=O)c3ccc(Br)o3)cc2)CC1,-8%,4%,2%,0%,32%,-3.0%,0%,39%
Cc1nc2ccccc2[nH]c1=O,1%,10%,.,.,-21%,.,-1%,.

# Additional records:
structure,NS1 inh,2A StopGo,Cruzain noTriton,Lassa entry inh,RE007 growth inh,Cruzain inh Det,SARS PLpro yeast,MARV entry inh
C=CCNC(=O)CN(c1ccc(F)cc1)S(=O)(=O)c1ccc(OC)cc1,0%,-7%,8%,-20%,24%,5.1%,-2%,-8%
CCOc1ccc2nc(C(C)O)[nH]c2c1 (stereo unspecified),3%,-12%,-6%,0%,-23%,-1.6%,2%,-6%
CCOc1ccc(N(CC(=O)NCc2ccc(Cl)cc2)S(=O)(=O)c2c(C)noc2C)cc1,-2%,-5%&4%,4%,23%[46.1 µM],-7%,-0.4%,-3%,-1%&-1%[46.1 µM]
CCOC(=O)CNc1nc(Cl)nc(NC(C)(C)C)n1,.,-1%,.,11%[46.1 µM],6%,.,-6%,14%[46.1 µM]
CCOC(=O)Cc1c(C)nc2c(-c3cccc(Br)c3)c[nH]n2c1=O,-33%,-18%,11%,16µM*,-20%,0.7%,5%,?
Cc1cc(C)n(CCN(C)C(=O)c2cc(COc3c(F)cccc3F)on2)n1,4%,12%,.,-26%,14%,.,-2%,7%[46.1 µM]
Cc1ccc(CNC(=O)c2ccc3c(=O)n(CCCN4CCCC4=O)c(=S)[nH]c3c2)cc1,-7%,8%,8%,10%,-8%[3.69 µM],-1.8%,-9%,4%
CC(Sc1ccccc1)C(=O)NN=C1CCCCCC1 (stereo unspecified),.,13%,.,-12%[46.1 µM],8%,.,4%,-13%[46.1 µM]
Cc1cccc(N2C(=O)SC(N(CC(=O)O)c3cccc(C)c3)C2=O)c1 (stereo unspecified),?,-7%,-9%,.,-18%,1.4%,5%,2%
COc1cc(C=NNC(=O)c2ccccc2-n2cccc2)ccc1O,.,-27%,.,-18%,3%,.,2%,?
CNC(=O)COC(=O)/C=C/c1cccs1,.,19%,.,1%,-25%,.,1%,?
O=C(Cc1noc2ccccc12)Nc1ccccn1,6%,63%[activator],-1%,?,5%,-0.6%,6%,?
CCCCCN(C(=O)CCC(=O)OCc1ccccc1Cl)c1c(N)n(CCCC)c(=O)[nH]c1=O,-23%,12%,.,-20%,?,.,0%,?
COc1ccc(OCc2ccc(C(=O)N3CCOCC3)cc2)cc1,12%,27%,17%,-12%,5%,-2.2%,-15%,-3%
O=c1[nH]c(=O)n(C2OC(CO)C(O)C2O)cc1F (stereo unspecified),.,5%,.,2µM*,?,.,.,?
NC(=O)CN1CCN(c2ccccc2F)CC1,-1%,-23%,-12%,28%,2%,1.2%,0%,-1%
Cc1c(C)c2c(OCC(=O)N3CCC(O)CC3)cc3c(c2oc1=O)CCC(C)(C)O3,-5%,-14%,.,.,4%,.,4%,.
O=C(O)CCc1ccc(-c2cccs2)n1CCC(=O)O,11%,4%,15%,6%,-11%,5.5%,11%,13%
CCCN(C1CCS(=O)(=O)C1)S(=O)(=O)c1ccc(F)cc1 (stereo unspecified),.,-21%,.,-18%,-4%,.,.,4%[46.1 µM]
Nc1nc2ccccc2n1CCOc1ccc(Br)cc1,-4%,-13%,.,.,-5%,.,-3%,.

# The list continues.
structure,NS1 inh,2A StopGo,Cruzain noTriton,Lassa entry inh,RE007 growth inh,Cruzain inh Det,SARS PLpro yeast,MARV entry inh
CSc1nnc(CNS(=O)(=O)c2ccc(Br)cc2)n1C,8%,-18%,.,.,5%,.,2%,.
O=C(CCCC(=O)OCC(Cl)=C(Cl)Cl)Nc1ccccc1,-28%,-5%,4%,?,1%,0.4%,-7%,?
Nc1ccccc1Oc1ncc(C(F)(F)F)cc1Cl,-9%,.,-3%,3%,-11%,-5.7%,5%,14%
CCNC(=O)NC(=O)C(C)OC(=O)CNS(=O)(=O)c1c(Cl)cc(Br)cc1Cl (stereo unspecified),-5%,6%,.,.,-2%,.,3%,.
O=C(NCC(c1ccco1)N1CCc2ccccc21)c1ccccc1 (stereo unspecified),.,-8%,.,-14%,0%,.,2%,-31%[46.1 µM]
CC(C)(C)C(=O)OCC1OC(n2cnc(C(N)=O)n2)C(O)C1O (stereo unspecified),-19%,-22%,0%,?,13%,0.8%,-1%,26%
